miR-21 reporter – miR-21 reporter, rising signal. HeLa miR-21 FLuc reporter, luciferase, 48 h. 340,000 tested, under 10 active. Potency, µM (doses to about 38.3 µM), inactives show at the top dose reporter change, positive = more light; active = well fitted rising curve with a large enough effect; inconclusive = small, poorly fitted or top-dose-only effect; inactive = no such curve, though single readings can be large or run the other way;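 further: % of control where 0% means no effect; miR-21 action dims this reporter so a rising signal means less miR-21 action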
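HeLa miR-21-FLuc reporter line, endogenous miR-21; 2000 cells/well in DMEM/10% FBS; compound titration up to ~40uM final, 48 h, 37 degree Celsius; luciferase detection reagent, 15 min lysis, CCD luminescence.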
Rango release inh – inhibition of RanGTP-driven Rango-importin beta dissociation. O95149+P62826. Biochemical FRET Rango-importin beta, RanGTP-induced dissociation. Potency, µM (top dose mostly 46.1 µM), for the others: top-dose activity change, negative = inhibition. 0.071% of 340,000 active; active means falling FRET ratio curve, often poorly fitted, with flat reads before Ran was added; inconclusive means other falling curves, or compound fluorescence or quenching; inactive means flat or rising ratio curve;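 further: potency means the concentration at half of the fitted maximal effect; % of control where 0% means no effect; nearly all actives have a fitted effect of over 45% in size; -100% = wells without RanGTP and RCC1; the record marks most hits as doubtful in a second field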
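Compounds preincubate 5 min with complex of recombinant Rango and importin beta in PBS with 1 mM DTT. Ran (0.6 uM) loaded with 2 mM GTP plus 0.2 uM RCC1 starts dissociation; FRET is recorded 45 min later.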
Rango complex inh – prevents formation of the Rango-importin beta complex; Q14974; Potency, µM (doses to about 92.2 µM), for inactives: top-dose inhibition of complex formation; AID 540263; 0.031% of 340,000 active; Rango CFP/YFP FRET sensor + importin beta, 45 min; active = rising FRET ratio curve, often small or poorly fitted; inconclusive = mostly compound fluorescence or quenching in the first reads; inactive = flat curves in all reads;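 further: potency means the concentration at half of the fitted maximal effect; 0% = DMSO wells and 100% = buffer wells lacking importin beta; nearly all actives have a fitted effect of over 15% in size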
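FRET biosensor (snurportin 1 IBB flanked by EYFP and cerulean), 50 nM, with compound 5 min, then 0.125 microM importin beta in PBS, 1 mM DTT, 0.02% Tween-20, 0.1% BSA. CFP/YFP ratio read after 45 min at room temperature; pre-read flags interference.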
GLA inh pH 4.5 – alpha-galactosidase A (human) inhibition, pH 4.5; activity change, negative = inhibition, % at 105 µM; P06280; purified enzyme, 4-MU-alpha-Gal fluorescence, pH 4.5; 230,000 tested, under 10 active; inconclusive = small, poorly fitted or top-dose-only inhibition, or a rising curve; inactive = flat fitted curve, though single readings scatter; no compound was filed as active;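 further: 0% = full activity with enzyme and -100% = basal without enzyme; dose as in the result columns while the protocol names 77 µM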
Target sequence (P06280 whole entry, looked up): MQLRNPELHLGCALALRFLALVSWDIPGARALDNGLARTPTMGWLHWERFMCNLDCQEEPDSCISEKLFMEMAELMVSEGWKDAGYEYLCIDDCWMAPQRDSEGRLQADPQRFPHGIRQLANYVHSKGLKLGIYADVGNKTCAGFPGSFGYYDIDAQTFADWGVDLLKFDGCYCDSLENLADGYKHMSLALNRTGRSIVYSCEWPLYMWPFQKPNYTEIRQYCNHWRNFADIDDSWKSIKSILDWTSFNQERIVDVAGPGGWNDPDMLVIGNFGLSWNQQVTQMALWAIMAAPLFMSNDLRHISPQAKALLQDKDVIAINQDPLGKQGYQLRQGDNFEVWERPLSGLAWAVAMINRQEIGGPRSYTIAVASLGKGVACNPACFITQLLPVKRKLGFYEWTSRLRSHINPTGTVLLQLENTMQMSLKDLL
An asterisk follows results filed as active; ? = inconclusive; nt = not tested or not shown. These rows are one share of the data, so the mix of outcomes need not match the whole.

miR-21 reporter | GLA inh pH 4.5 | Rango release inh | Rango complex inh | Compound
10% | 3 | 6% | 3.2% | Cc1ccc(S(=O)(=O)NN2C(=O)c3ccccc3NC2c2cccc(O)c2)cc1 (stereo not drawn)
-7% | -1 | -5% | -2.7% | O=C(COc1ccc(Br)cc1)N(Cc1ccccc1)c1ccccn1
-55% | 6 | -3% | -2.0% | O=C(CSc1ccccn1)c1ccc2c(c1)OCO2
0% | -4 | 3% | 4.4% | CCCc1cc(=O)n2[nH]cnc2n1
-7% | nt | -2% | 1.1% | COc1ccc(C(NC(=O)CN2CCCCCC2)c2ccc(OC)cc2)cc1
nt | nt | 1% | -0.8% | Cc1ccc(S(=O)(=O)Nc2c(C)n(C)n(-c3ccccc3)c2=O)cc1C(=O)OC(C)C(=O)c1ccccc1 (stereo not drawn)
-8% | 1 | -11% | ? | O=C(O)CC/C(=N\Nc1ccc(S(=O)(=O)N2CCOCC2)cc1[N+](=O)[O-])c1cccs1
-53% | -2 | -10% | -0.1% | CCCc1nn(C)c(C(=O)Nc2cccc(CC)c2)c1Cl
-3% | -7 | -2% | 0.7% | O=C(Cc1ccccc1)N[C@H](c1ccccc1)P(=O)(O)CO
-3% | 4 | 8% | -0.8% | Cc1ccc(CNc2nc(N)c([N+](=O)[O-])c(NCc3ccccc3)n2)cc1
-27% | -6 | ? | -0.9% | CC(C)(C)c1cc(C(=O)N/N=C/c2ccccn2)n[nH]1
0% | -7 | 24% | -2.0% | O=C(/C=C/c1ccc([N+](=O)[O-])cc1)NCCOc1ccc(F)cc1
-5% | -5 | -12% | -2.9% | CCOC(=O)C1Cc2c([nH]c3ccccc23)CN1 (stereo not drawn)
-1% | 2 | -14% | ? | Cc1cc(C(=O)N/N=C2\CCCC(=O)C2)c2ccccc2n1
-1% | 5 | 1% | -0.6% | Cc1ccc(Nc2nc(-c3ccncc3)nc3ccccc23)cc1
0% | nt | 11% | 3.2% | COc1ccc2[nH]c(=O)c(CN(C(=O)C(C)C)c3ccccc3OC)cc2c1
-3% | 4 | -6% | 0.2% | NC(=O)CSc1nnc(C2CC2)n1-c1ccccc1
-1% | nt | 8% | -0.1% | CC(C)(C)C1CCCCC1NC(=O)c1ccncc1 (stereo not drawn)
0% | 7 | 30% | 1.9% | CN(C)S(=O)(=O)N1CCN(C(=O)N2CCCCC2)CC1
2% | nt | -4% | -3.7% | Cc1cc(NC(=O)CCC(=O)N(c2ccccc2)C(C(=O)NC(C)(C)C)c2ccccc2Cl)no1 (stereo not drawn)

Rewritten with each value named: four of the compounds above.
NC(=O)CSc1nnc(C2CC2)n1-c1ccccc1
  miR-21 reporter: -3%; GLA inh pH 4.5: 4; Rango release inh: -6%; Rango complex inh: 0.2%

CC(C)(C)C1CCCCC1NC(=O)c1ccncc1 (stereo not drawn)
  miR-21 reporter: -1%; GLA inh pH 4.5: nt; Rango release inh: 8%; Rango complex inh: -0.1%

CN(C)S(=O)(=O)N1CCN(C(=O)N2CCCCC2)CC1
  miR-21 reporter: 0%; GLA inh pH 4.5: 7; Rango release inh: 30%; Rango complex inh: 1.9%

Cc1cc(NC(=O)CCC(=O)N(c2ccccc2)C(C(=O)NC(C)(C)C)c2ccccc2Cl)no1 (stereo not drawn)
  miR-21 reporter: 2%; GLA inh pH 4.5: nt; Rango release inh: -4%; Rango complex inh: -3.7%

Next section
miR-21 reporter | GLA inh pH 4.5 | Rango release inh | Rango complex inh | Compound
-7% | 0 | 10% | 1.1% | O=C(O)CC(Cc1ccccc1)C(=O)NCC12CC3CC(CC(C3)C1)C2 (stereo not drawn)
nt | nt | 9% | -5.3% | CC1CCCC(C)N1C(=O)COC(=O)CN1C(=O)c2ccccc2C1=O (stereo not drawn)
-2% | 4 | -7% | -0.2% | Cc1nc2sc(C(c3ccc(Cl)cc3)N3CCOCC3)c(O)n2n1 (stereo not drawn)
nt | nt | -18% | 5.3% | CCOc1ccc(C(=O)NCC(=O)NCC(c2ccccc2OC)N2CCCC2)cc1 (stereo not drawn)
0% | nt | -4% | -0.5% | CC(NC(=O)C1CCCC1)c1ccc(Br)cc1 (stereo not drawn)
-1% | -7 | -18% | 3.2% | O=C(NNC(=S)Nc1ccccc1C(F)(F)F)C1CC1
nt | nt | 12% | -4.0% | CC(C)CCNC(=O)c1c(CSc2ccc(Cl)cc2)noc1C(=O)NCc1ccccc1
12% | nt | 10% | 0.4% | COc1ccc(CNC(=O)c2ccc(CS(=O)Cc3cccc(Cl)c3)o2)cc1 (stereo not drawn)
nt | nt | 1% | -2.4% | CCCN(CC(=O)Nc1ccccc1C)C(=O)c1ccc(N2CCCC2=O)cc1
-5% | -8 | -13% | -6.3% | CC(=O)Nc1ccc(OCCOc2ccc(/C=C3/C(=N)N4C=CSC4=NC3=O)cc2)cc1
-2% | 3 | 6% | -1.7% | O=C(NN1CCOCC1)c1ccc(Br)s1
3% | 11 | 11% | -4.1% | O=S(=O)(c1ccc(S(=O)(=O)N(Cc2ccc(F)cc2)C2CCCC2)cc1)N1CCCC1
-9% | 13 | 1% | 0.6% | O=C(NC(=S)Nc1ncc(Br)cc1Br)c1cncc(Br)c1
1% | 3 | -9% | 1.5% | CCCN(CCC)S(=O)(=O)c1ccc2c(c1)CCCN2C(C)=O
-3% | nt | 7% | 1.6% | Cc1nc(C)n(C(C)CNS(=O)(=O)c2ccc(C)c(C)c2)n1 (stereo not drawn)
1% | nt | -10% | -3.5% | COc1ccccc1N(Cc1cc(=O)[nH]c2ccccc12)C(=O)C(C)C
nt | nt | -5% | 6.0% | Cc1cccc(N(Cc2ccccc2)C(=O)c2ccc(F)c(S(=O)(=O)N3CCOCC3)c2)c1
-5% | nt | 10% | 0.9% | O=C(CN1C(=O)CCSc2ccccc21)NC1CCCCC1
-20% | 4 | ? | ? | O=C(N/N=C/C1=Cc2ccccc2OC1)c1ccncc1
-4% | -11 | 10% | -0.2% | COc1ccc(-c2csc(Nc3ccc(S(=O)(=O)Nc4cc(C)on4)cc3)n2)cc1C
3% | -11 | 7% | -0.2% | O=C(CSc1nnc(CNC(=O)c2cccs2)o1)Nc1ccccc1
-3% | -7 | -9% | -3.3% | CCCS(=O)(=O)N1CCCC(C(=O)NCCCN(C)c2ccccc2)C1 (stereo not drawn)
-11% | 5 | nt | nt | O=c1c(-c2nc3ccccc3o2)c2oc3ccccc3n2c2ccccc12
-1% | -3 | 21% | -0.3% | C[N+]1(CC(=O)OCCCc2ccccc2)CCCCC1
6% | nt | 18% | -1.9% | O=C1c2cccc3c([N+](=O)[O-])ccc(c23)C(=O)N1O
8% | ? | 0% | 4.3% | Cc1ccc(CCNC(=O)CNC(=S)N(Cc2ccccc2)Cc2cccnc2)cc1
0% | 1 | -9% | -0.1% | O=C(NCCCN1CCCC1)C1CCC(=O)N1C1CCCCC1 (stereo not drawn)
-61% | -3 | 3% | -0.9% | Cc1ccc2c3c([nH]c2c1C)-c1nonc1CC3
-1% | -3 | -2% | -0.2% | NC(=O)NC(CC(=O)NCCc1ccc(S(N)(=O)=O)cc1)c1ccccc1Cl (stereo not drawn)
4% | 1 | 27% | -0.4% | CCOC(=O)C(C)Oc1cccc2c(=O)n(CC(=O)NCCc3ccccc3)ccc12 (stereo not drawn)
nt | nt | -7% | -2.7% | COc1ccc(OC)c(S(=O)(=O)Nc2cc3c4c(c2)CCC(=O)N4CCC3)c1
1% | -12 | 10% | -1.5% | OC(COc1ccccc1)CN1CCCC1 (stereo not drawn)
nt | nt | 7% | 4.4% | O=C(N[C@@H](Cc1ccccc1)C(=O)N1CCN(S(=O)(=O)c2ccc(F)cc2)CC1)c1ccco1
1% | 4 | 10% | 4.3% | [O-][N+]12CCN(CC1)c1ccccc12
0% | -11 | ? | ? | OCCCNC(=S)Nc1ccc2nc(-c3ccccn3)c(-c3ccccn3)nc2c1
nt | nt | -1% | 2.1% | CCN(c1ccccc1)S(=O)(=O)c1ccc(OC)c(NC(=O)c2ccc(=O)[nH]c2)c1
nt | nt | 10% | 3.0% | Cn1cnc2c(cnn2C)c1=O
1% | nt | -2% | 0.5% | COc1ccccc1C(=O)Nc1ccnn1C1CCN(Cc2ccc3nonc3c2)CC1
-7% | -1 | -10% | ? | CCOC(=O)Cn1cnc2sc3c(c2c1=O)CCC3
-15% | -4 | 0% | -1.5% | CC(Sc1nncs1)C(=O)Nc1ccc2c(c1)OCO2 (stereo not drawn)
nt | nt | -12% | -5.2% | CC(=O)c1ccc(OCCCC(=O)Nc2ccc3c(c2)OCCO3)cc1
nt | nt | -6% | 0.9% | c1ccc(-[n+]2nc(Nc3cccc4ccccc34)sc2-c2c3ccccc3cc3ccccc23)cc1
9% | -9 | 5% | 0.3% | O=C(Nc1ccccc1)N1CCCN(c2c(Cl)cncc2Cl)CC1
-3% | 10 | 12% | -2.4% | O=C(O)COc1ccccc1/C=N/NC(=O)c1ccc(F)cc1
0% | 6 | 5% | -0.1% | O=C(c1c(F)cccc1F)N1CCN(c2ccccc2F)CC1
-3% | -5 | 17% | -1.5% | COCCNC(=O)CSc1nnc2c(Cl)cc(Cl)cn12
1% | 3 | -15% | 0.5% | Cc1cc(/C=C2\NC(=O)NC2=O)c(C)n1-c1ccc(N2CCOCC2)cc1
-3% | 6 | -4% | 2.8% | O=C(C1CCN(S(=O)(=O)N2CCOCC2)CC1)N1CCN(c2ccccc2)CC1
-5% | -1 | 10% | -3.9% | O=C(COC(=O)c1ccc2c(c1)OCO2)NCc1ccc2c(c1)OCO2
-1% | -1 | 25% | -0.1% | CC(C)C(=O)NCCn1ccc2ccccc21
-2% | ? | ? | ? | C=CCn1c(N)c(C(=O)OCCC)c2nc3ccccc3nc21
0% | 3 | 7% | 0.6% | CC1(C)C(=O)OC(C(=O)c2ccccc2)C(C)(C)C1=O (stereo not drawn)
-6% | -7 | -4% | 0.7% | COc1cc2cc(C)c(SCC(=O)N3CCN(C(=O)c4ccco4)CC3)nc2cc1OC
0% | nt | -8% | -1.3% | CSc1nccn1C(=O)c1ccccc1[N+](=O)[O-]
-9% | 17 | 0% | 0.3% | C/C(=N\NC(=O)C1CC1(c1ccccc1)c1ccccc1)c1cccc([N+](=O)[O-])c1 (stereo not drawn)
0% | 1 | 8% | -1.1% | CCN1C(=O)CS/C1=N\S(=O)(=O)c1ccc(C)cc1
-7% | -5 | -1% | ? | CN(Cc1cc(=O)n2ccsc2n1)c1ccccc1
-18% | nt | 7% | -0.5% | CCc1nnc(NS(=O)(=O)c2ccc(NC(=O)c3ccccc3OC)cc2)s1
-1% | 11 | 6% | -1.6% | CCn1nc(C(=O)NCCc2ccc(S(N)(=O)=O)cc2)c2ccccc2c1=O
-21% | nt | ? | ? | N#C/C(=C\c1ccccc1O)C(=O)Nc1ccccn1

New compounds follow
miR-21 reporter | GLA inh pH 4.5 | Rango release inh | Rango complex inh | Compound
1% | 4 | -9% | -4.4% | COCCNC(=O)CSc1nc2scc(-c3ccccc3)c2c(=O)[nH]1
-17% | -4 | -3% | 1.3% | O=C(Nc1ccc(Cl)c([N+](=O)[O-])c1)c1cnccn1
6% | nt | 8% | -1.7% | Cc1ccc(S(=O)(=O)/N=C(/Nc2cccc3ccccc23)c2ccc(F)cc2)cc1
22% | -4 | -5% | -2.9% | O=Cc1c(N2CCCCC2)nc2ccccn2c1=O
? | 3 | -11% | 3.4% | CCc1ccc(S(=O)(=O)Nc2cc(SCC(=O)O)c(O)c3ccccc23)cc1
-1% | 1 | -9% | -0.8% | COc1cc(OC)c(C(=O)NCCCn2ccnc2)cc1OC
-22% | -2 | 5% | -0.7% | C/C(=N\NC(=O)C1COc2ccccc2O1)c1cccs1 (stereo not drawn)
? | 0 | nt | nt | COC(=O)c1cc(N2C(=O)C3C(C2=O)C2(C)C=CC3(C)O2)ccc1Cl (stereo not drawn)
-25% | 7 | 0% | -0.5% | CCOc1ccccc1CN1CCN(Cc2cc3ccccc3[nH]2)CC1CCO (stereo not drawn)
-3% | 5 | -6% | -3.3% | Cc1sc2c(c1C)c(=O)n(-c1ccc(F)cc1)c(=O)n2CC(=O)NCc1ccco1
-29% | 0 | 3% | 6.4% | N#CC1=C(N)N(c2ccccc2)C(c2ccccc2)C1(C#N)C#N (stereo not drawn)
-14% | 4 | 17% | -5.5% | CCCNC(=O)NC1CCCCCCC1
